GIV Gai3 FP: blocks GIV peptide binding to rat Galpha-i3. AID 1224905. percent of control (FP), % (test concentration not listed). Galpha-i3/FITC-GIV peptide fluorescence polarization, 90 min; hits give low values; scaled: aluminum fluoride 0%, vehicle 100%. hit rate 0.42% among 210,000. P08753;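 active means replicate mean at 85% of control or lower, very high polarization wells dropped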;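 further: wells of about 15 µL received 100 nL stock; the first replicate is given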
Target sequence (P08753 whole entry, looked up): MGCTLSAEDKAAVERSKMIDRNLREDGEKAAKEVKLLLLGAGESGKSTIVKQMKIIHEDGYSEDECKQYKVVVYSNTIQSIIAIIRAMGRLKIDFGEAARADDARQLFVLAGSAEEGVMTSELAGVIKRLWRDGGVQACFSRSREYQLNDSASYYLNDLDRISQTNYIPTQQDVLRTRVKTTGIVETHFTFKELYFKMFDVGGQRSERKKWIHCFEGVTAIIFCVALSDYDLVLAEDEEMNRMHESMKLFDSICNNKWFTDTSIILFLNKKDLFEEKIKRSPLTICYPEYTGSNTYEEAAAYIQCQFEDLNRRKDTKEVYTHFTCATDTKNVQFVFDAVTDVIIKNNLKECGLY
Sa growth 42C: S. aureus growth inhibition. S. aureus RN4220 growth, OD600, 20 h, 42 °C; hits give low values. relative growth, % (no concentration beside the values). hit rate 0.53% among 170,000. AID 720641;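 active means growth at 42 °C up to 50% and 20 or more points under that at 30 °C, or under 10% at both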;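 further: 300 nL library stock went into each well; scaled to the means of positive and negative controls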
HCMV NEC inh: inhibitors of HCMV UL50-UL53 nuclear egress complex interaction | inhibition, % (test concentration not listed) | hit rate 0.15% among 190,000 | HTRF UL50-UL53 interaction, normalized percent inhibition;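 active means both replicates at 50% or more, plus weaker picks with an unusually low signal ratio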;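 further: stock transfer was 100 nL into about 20 µL; 0% = negative control wells and 100% = wells with untagged competitor protein; inactives centre near -12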
Sa growth 42C second temp: further read-out of Sa growth 42C, marked with its call; relative growth, %; measured here: growth at 30 °C;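 optical density after 20 h as mean of two plates; 100% = untreated growth and lower means inhibition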
Numbers without * were called inactive; nt = not tested or not shown; & = joins results of further samples.

SMILES | GIV Gai3 FP | Sa growth 42C | Sa growth 42C second temp | HCMV NEC inh
N#Cc1nc(-c2ccc(Cl)cc2)oc1NCc1ccccc1 | nt | 117 | 100 | 0
COc1cccc(Oc2coc3cc(OCC(N)=O)ccc3c2=O)c1 | 105 | 95 | 93 | -10
Cc1c(NC(=O)Nc2ccccc2C(F)(F)F)c(=O)n(-c2ccccc2)n1C | 104 | 109 | 93 | 5
CC1CCN(c2ccc(-c3nc(-c4ccccc4)no3)cc2[N+](=O)[O-])CC1 | 111 | 102 | 92 | -11
CC(C)CC(F)Cc1cnc(=O)[nH]c1 (stereo unspecified) | 109 | 92 | 82 | -69
Cc1ccc(N2CC(C(=O)OCC(=O)C(C)(C)C)CC2=O)cc1 (stereo unspecified) | 101 | 98 | 83 | -2
CCOC(=O)c1ccc(NC(=O)/C(=C\c2ccco2)NC(=O)c2ccccc2Br)cc1 | 105 | 119 | 90 | -6
CCOC(=O)c1ccc(N2C(=O)CC(Sc3ccc(C)cc3)C2=O)cc1 (stereo unspecified) | 100 | 101 | 89 | -8
NCCC12CC3CC(C1)CC(CCN)(C3)C2 | 114 | 96 | 91 | 18
O=C(Nc1c(C(=O)N2CCN(c3ccccc3F)CC2)oc2ccccc12)c1ccccc1F | 100 | 107 | 91 | nt
C=CCN1C(=O)C2C(C1=O)C1C=CC2C12CC2 (stereo unspecified) | 108 | 105 | 97 | -2
CCOc1ccccc1NC(=O)C1CCCN(C(=O)Nc2ccccc2)C1 (stereo unspecified) | 96 | 78 | 78 | -15
CCOC(=O)C12CCC(C(N)=O)(CC1)CC2 | nt | 64 | 90 | 1
Cc1ccc2c(c1)-c1c(cnn1CC(=O)Nc1ccccc1C#N)CO2 | 101 | 98 | 76 | 8
CN(C)CCOC(=O)CCN1C(=O)/C(=C/c2cccc(Br)c2)SC1=S | 100 | nt | nt | -34
CCCc1nc2c(=O)[nH]c3ccccc3c2o1 | 104 | 100 | 92 | 1
CC12CCCCC1N(CCC(N)=O)c1ccccc12 (stereo unspecified) | nt | 105 | 88 | -12
COc1ccc(/C=C2\SC(=Nc3ccccc3)NC2=O)c2ccccc12 | 99 | nt | nt | -30
CC1c2ccsc2CCN1C(=O)c1ccco1 (stereo unspecified) | 99 | 83 | 78 | -15
COc1ccc(O)c(CN2CCCCC2)c1 | 109 | 80 | 112 | 11
CC1(C)c2ssc(=S)c2-c2ccccc2N1C(=O)CSc1ncn[nH]1 | nt | 76 | 86 | -84
CC1=Nc2cc(C(=O)NCCc3ccccc3)ccc2Sc2c(C)ccc(C)c21 | 98 | 107 | 87 | -33
CCOc1ccc(CNC(=O)C2CCCN(c3nnc(C)c4c(C)n(-c5ccccc5)nc34)C2)cc1 (stereo unspecified) | 105 | 97 | 89 | nt
COc1ccc(NS(=O)(=O)c2ccc3c(c2)oc(=O)n3C)cc1Cl | 106 | 86 | 75 | -25
Cc1ccc(C)c(Cn2c(=O)n(Cc3ccccc3)c(=O)c3c(C)c(C)sc32)c1 | 104 | 94 | 90 | -17
Cc1ccc(Sc2ncccc2NC(=O)C2CC2)cc1 | 100 | 115 | 97 | -4
CN(CC(=O)Nc1ccccc1C(F)(F)F)C(=O)CSc1nnc(-c2ccccc2F)o1 | nt | 107 | 87 | -7
O=c1c2c(-c3ccc(Cl)cc3)csc2ncn1-n1cccc1 | nt | 97 | 101 | -11
CCN1CCC(N(Cc2ccc(F)cc2)C(=O)Nc2cc(Cl)ccc2C(=O)OC)CC1 | 103 | 106 | 70 | nt
C=Cc1ccc(Cn2c(=O)cc(C)c3c(C)nn(C)c32)cc1 | 105 | 98 | 102 | nt
Cc1ccc(C)n1-c1nnc(N2CCCC(C(=O)NC3CC3)C2)s1 (stereo unspecified) | 97 | nt | nt | -2
COc1ccc(NC(=O)Cn2cnnn2)c(OC)c1 | nt | 95 | 91 | -3
Cc1nc2c(-c3ccccc3)c(C)nn2c(C)c1CCC(=O)N1CCN(c2ccc(F)cc2)CC1 | 103 | 95 | 92 | -40
c1n[nH]c(SCc2ccc(CSc3ncn[nH]3)cc2)n1 | 99 | 80 | 76 | 2
Cc1cccc(N2CCN(C(=O)c3ccc4c(c3)CCN4S(=O)(=O)c3ccccc3)CC2)c1C | 104&105 | 104 | 89 | -20&10
CCNC(=O)N(Cc1nc(-c2ccc(C)cc2)no1)C1CCCCC1 | 99 | 88 | 84 | -17
CC1=C(C(=O)OCC(F)(F)C(F)(F)F)C(c2ccccc2Br)NC(=O)N1 (stereo unspecified) | 103 | nt | nt | -14
Cc1ccc(NC(=S)C(C#N)C(=O)N2CCC(C)CC2)c(C)c1 (stereo unspecified) | 105 | 98 | 63 | -21
CCOc1ccc(N(C)C(CNS(=O)(=O)c2ccccc2)c2ccccc2)cc1 (stereo unspecified) | 106 | 99 | 83 | -10
CN(C)C(=O)c1ccc2c(c1)nnn2CCNC(=O)NC1CCCCC1 | 104 | nt | nt | -18
CSc1ccc(C(=O)Nc2ccc(Cl)cc2)s1 | 101 | 101 | 106 | 6
CC(C)C(=O)Nn1cnc2c(cnn2-c2ccccc2)c1=O | 103 | 97 | 89 | -10
COc1ccc(C(CNc2ccc(C(F)(F)F)cn2)N(C)C)cc1OC (stereo unspecified) | nt | 76 | 61 | -28
Cc1cc(C)nc(NNC(=S)Nc2ccc(S(=O)(=O)N3CCOCC3)cc2)n1 | nt | 100 | 92 | -14
Cc1nnc(SCC(=O)NCc2ccccc2)n1C(C)C | 99 | 101 | 101 | -14
CCOC(=O)c1cc(C)n(CC2CCC(C(=O)NCc3ccccc3OC)CC2)c1C (stereo unspecified) | 106 | nt | nt | -5
Cc1cccc(OCCCCn2c(C3CC(=O)N(c4ccc(C)cc4C)C3)nc3ccccc32)c1 (stereo unspecified) | 100 | 95 | 32 | -5
CC(=O)Nc1ccc(N2C(=O)c3cc(C)nn3CC2(C)C(=O)NCc2ccc(C)cc2)cc1 (stereo unspecified) | 98 | nt | nt | 4
Cc1ccccc1NC(=O)c1cc2c(-c3ccccc3)nn(-c3ccccc3)c2s1 | 106 | 99 | 92 | -32
COc1ccc(Cl)cc1NC(=O)c1nnn(CC(=O)Nc2c(C)cc(C)cc2C)c1N | 98 | 94 | 89 | -11
NC(=O)c1c(NC(=S)NC(=O)c2ccccc2Cl)sc2c1CCCC2 | nt | 120 | 70 | 0
CCC(C)NS(=O)(=O)c1ccc(S(=O)(=O)N(Cc2ccc(C)o2)C2CCCC2)cc1 (stereo unspecified) | 106 | 66 | 64 | 1
Fc1ccccc1CNc1ncnc2c(-c3ccccc3)noc12 | 103 | nt | nt | -15
Brc1ccc(N=Cc2ccc[nH]2)cc1 | 98 | 105 | 85 | -5
Clc1ccc(-c2noc3ncnc(NCCCN4CCOCC4)c23)cc1 | 93 | nt | nt | -37
COc1ccc(-c2c(C)c3ccc(O)c(CN4CCCC4)c3oc2=O)cc1OC | 105 | 88 | 92 | nt
Cc1ccc(-c2csc3[nH]c(=S)[nH]c(=O)c23)c(C)c1 | 103 | nt | nt | -19
Cc1ccc(-n2nc(-c3ccco3)cc2C(=O)O)cc1 | nt | 119 | 67 | -31
COC(=O)C1CC2(C(=O)O)CC(C(=O)O)(CC(C(=O)OC)C2=O)C1=O (stereo unspecified) | 99 | 58 | 54 | -22
COc1cc(-c2noc(CSc3nc(-c4ccc(F)cc4)cc(=O)[nH]3)n2)cc(OC)c1OC | 100 | 106 | 92 | nt

Exported with values under each structure: entries from further up
Screens in order: GIV Gai3 FP | Sa growth 42C | Sa growth 42C second temp | HCMV NEC inh
CCOC(=O)c1cc(C)n(CC2CCC(C(=O)NCc3ccccc3OC)CC2)c1C (stereo unspecified)
→ 106 | nt | nt | -5
COC(=O)C1CC2(C(=O)O)CC(C(=O)O)(CC(C(=O)OC)C2=O)C1=O (stereo unspecified)
→ 99 | 58 | 54 | -22

Next section.
SMILES | GIV Gai3 FP | Sa growth 42C | Sa growth 42C second temp | HCMV NEC inh
CCOC(=O)c1c(C)[nH]c(C(=O)N2CCCC(C(=O)NCCc3c[nH]c4ccccc34)C2)c1C (stereo unspecified) | 99 | nt | nt | 4
CN(C(=O)CSc1nnc(-c2cc3ccccc3n2C)o1)c1ccc(F)cc1 | 98 | nt | nt | -13
CCN1CCCC1CNC(=O)c1ccc2nc(N3CCC(C)CC3)sc2c1 (stereo unspecified) | 105 | 106 | 87 | 6
CC(=O)Nc1ccc(Nc2ccc3cc(S(=O)(=O)N4CCCCC4)ccc3n2)cc1 | 105 | 93 | 89 | nt
CCc1ccccc1Nc1nn2c(=O)c3ccc(C(=O)NCCCOC(C)C)cc3nc2s1 | 100 | 102 | 88 | nt
COc1ccc(NC(=O)CSc2nncn3c2cc2occc23)c(OC)c1 | 107 | 94 | 89 | nt
Cn1c(=O)c(N2CCC(C(=O)NCc3ccc(Cl)cc3)CC2)nc2ccccc21 | 102 | nt | nt | -1
CC1CC(=O)N(CC(=O)Nc2ccccc2)c2ccccc2S1(=O)=O (stereo unspecified) | 100 | 101 | 78 | -34
O=C(CSc1n[nH]c(-c2ccncc2)n1)c1ccc[nH]1 | nt | 78 | 95 | 2
O=C(O)c1cc(NS(=O)(=O)c2ccc3c(c2)CCCC3)cnc1N1CCOCC1 | 81* | nt | nt | -24
Cc1cc(=O)oc2[nH]c(=S)[nH]c(=O)c12 | 98 | 91 | 85 | -24
COc1cccc(NC(=O)c2cc3c(-c4ccc(Cl)cc4)nn(C)c3s2)c1 | 99 | 112 | 85 | 20
COc1ccc(C2CC(=O)C3=C(C2)Nc2onc(C)c2C3c2ccc(OC)c(O)c2)cc1 (stereo unspecified) | 108 | nt | nt | -23
O=C(NCCCCc1ccccc1)c1nn(-c2ccccc2F)nc1CO | 99 | 83 | 76 | -15
O=C(CNc1ccc(Cc2ccncc2)cc1)c1cccc2ccccc12 | nt | 117 | 97 | -6
O=C(c1ccc2noc(-c3ccc(F)cc3)c2c1)N1CCN(c2cccc(Cl)c2)CC1 | 99 | nt | nt | -17
C/C(=C/C(=O)c1ccc(C)cc1)N1CCC(C(N)=O)CC1 | nt | 81 | 81 | -19
C=CCN(Cc1nc(-c2ccc(C)cc2)no1)C(=O)Nc1cccc(Cl)c1 | 107 | nt | nt | 9
CCc1cc(=O)oc2cc(OCC(=O)N(CC)CC)c(Cl)cc12 | nt | 93 | 91 | -9
O=C1Nc2ccccc2/C1=c1\sc2nc3ccccc3n2c1=O | 106 | 85 | 83 | -7
COc1ccccc1N1CCN(C(=O)CN(c2cc(Cl)ccc2OC)S(=O)(=O)c2ccc(C)c([N+](=O)[O-])c2)CC1 | 103 | nt | nt | -16
CCC1CN(C(=O)N2CCC(C(=O)N(C)Cc3ccccc3)CC2)c2ccccc2O1 (stereo unspecified) | 103 | 56 | 69 | -19
Cc1ccc(C(=O)Oc2cc(-c3ccc4c(c3)OCO4)cc(=O)c3c(C)oc(C)c23)cc1 | 101&109 | 102 | 91 | 0&-27
N#Cc1cc2c(nc1SCc1ccccc1)CCCC2=O | 112 | 118 | 93 | -19
N#Cc1c(-c2ccccc2)nc(SCC(=O)NC2CCCCC2)[nH]c1=O | 95 | 96 | 83 | -18
CCC(=O)Nc1nc2cc(NC(=O)CN3C(=O)COc4ccc(C(C)(C)C)cc43)ccc2s1 | 105 | nt | nt | -28
CC1(C)C(=O)Nc2ccccc2N1C(=O)CSc1ncnc2ccccc12 | nt | 110 | 95 | -12
COc1cc2ccccc2cc1C(=O)N1CCN(c2nc3c(C)cc(C)cc3s2)CC1 | 100 | 104 | 94 | nt
O=C(c1ccco1)N1C(=O)c2cccc3cccc1c23 | 112 | 97 | 96 | -8
CC1(C)CCCC2=C1CC1C(=O)NNC(=O)C1C2 (stereo unspecified) | nt | 101 | 98 | -10
FC(F)(F)Oc1ccc(-c2noc(-c3ccno3)n2)cc1 | 102 | 103 | 83 | 3
COCCNC(=O)c1ccc(S(=O)(=O)N2CCC(C)CC2)cc1 | nt | 75 | 88 | -15
CN(C)c1nc(-c2ccccc2)ns1 | 100 | 91 | 80 | -8

Of the compounds above, these have a Cl atom:
SMILES | GIV Gai3 FP | Sa growth 42C | Sa growth 42C second temp | HCMV NEC inh
N#Cc1nc(-c2ccc(Cl)cc2)oc1NCc1ccccc1 | nt | 117 | 100 | 0
COc1ccc(NS(=O)(=O)c2ccc3c(c2)oc(=O)n3C)cc1Cl | 106 | 86 | 75 | -25
O=c1c2c(-c3ccc(Cl)cc3)csc2ncn1-n1cccc1 | nt | 97 | 101 | -11
CCN1CCC(N(Cc2ccc(F)cc2)C(=O)Nc2cc(Cl)ccc2C(=O)OC)CC1 | 103 | 106 | 70 | nt
CSc1ccc(C(=O)Nc2ccc(Cl)cc2)s1 | 101 | 101 | 106 | 6
COc1ccc(Cl)cc1NC(=O)c1nnn(CC(=O)Nc2c(C)cc(C)cc2C)c1N | 98 | 94 | 89 | -11
NC(=O)c1c(NC(=S)NC(=O)c2ccccc2Cl)sc2c1CCCC2 | nt | 120 | 70 | 0
Clc1ccc(-c2noc3ncnc(NCCCN4CCOCC4)c23)cc1 | 93 | nt | nt | -37
Cn1c(=O)c(N2CCC(C(=O)NCc3ccc(Cl)cc3)CC2)nc2ccccc21 | 102 | nt | nt | -1
COc1cccc(NC(=O)c2cc3c(-c4ccc(Cl)cc4)nn(C)c3s2)c1 | 99 | 112 | 85 | 20
O=C(c1ccc2noc(-c3ccc(F)cc3)c2c1)N1CCN(c2cccc(Cl)c2)CC1 | 99 | nt | nt | -17
C=CCN(Cc1nc(-c2ccc(C)cc2)no1)C(=O)Nc1cccc(Cl)c1 | 107 | nt | nt | 9
CCc1cc(=O)oc2cc(OCC(=O)N(CC)CC)c(Cl)cc12 | nt | 93 | 91 | -9
COc1ccccc1N1CCN(C(=O)CN(c2cc(Cl)ccc2OC)S(=O)(=O)c2ccc(C)c([N+](=O)[O-])c2)CC1 | 103 | nt | nt | -16
